Screening data (PubChem)
Cruzain inh noDet: inhibitors of Trypanosoma cruzi cruzain without detergent. P25779. purified cruzain, Z-FR-AMC fluorescence, no detergent. AID 1476. actives 2.3% (n = 200,000). Potency, µM, inactives show max response, negative = inhibition, most hits filed as inhibitors;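 further: plate controls were enzyme without inhibitor for no effect and buffer without enzyme for full effect; nearly all actives have a fitted effect of over 40% in size; top concentration of the series not given in the record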
Target sequence (P25779 123-467 limits assumed): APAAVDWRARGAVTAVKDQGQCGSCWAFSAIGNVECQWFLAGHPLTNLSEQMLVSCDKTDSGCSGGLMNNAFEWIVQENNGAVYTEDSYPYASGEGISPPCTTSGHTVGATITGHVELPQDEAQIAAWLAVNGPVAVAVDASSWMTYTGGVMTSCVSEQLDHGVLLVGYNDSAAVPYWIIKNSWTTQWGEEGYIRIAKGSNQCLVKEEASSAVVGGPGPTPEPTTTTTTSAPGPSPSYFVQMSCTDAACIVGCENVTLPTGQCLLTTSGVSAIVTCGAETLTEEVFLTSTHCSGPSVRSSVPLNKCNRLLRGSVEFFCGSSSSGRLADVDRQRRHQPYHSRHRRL
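Purified cruzain at 1.5 nM, pre-incubated 15 min with compound at room temperature in 100 mM sodium acetate pH 5.5, 5 mM DTT, 0.00005% Triton X-100. Reaction started with 2 uM Z-FR-AMC; AMC fluorescence increase over 60 s gives rate.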
MARV entry inh: blocks Marburg virus binding to or entry into cells; Potency, µM (top dose mostly 37.8 µM), for inactives: at the highest dose activity change, negative = inhibition, actives largely listed as inhibitors; actives 1.8% (n = 300,000); AID 540276; Marburg virus pseudotyped entry inhibition, cell reporter; control for the full effect not named in the record; about a third of the inactives were read at about 46 µM; active = well fitted inhibition curve with a large enough effect; inconclusive = small, poorly fitted or top-dose-only effect, or effect the other way; inactive = flat fitted curve, though single readings scatter; tested in HEK293 cells; about a fifth of its hits are not listed in these tables; further: on the % scale 0 is the no-effect control and ±100 the full control effect; luciferase read-out
RE007 growth inh: less growth of the S. pombe RE007 Vpr strain; Potency, µM (doses to about 92.2 µM), without a hit: at the top dose activity change, negative = less growth; actives 0.21% (n = 360,000); S. pombe RE007 Vpr strain, BacTiter-Glo ATP luminescence, 24 h; control for the full effect not named in the record; active = well fitted falling curve with a large enough effect; inconclusive = small, poorly fitted or top-dose-only effect; inactive = no such curve, though single readings can be large or run the other way;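 further: on the % scale 0 is the no-effect control and ±100 the full control effect; nearly all actives have a fitted effect of over 50% in size; the assay follows cell death caused by Vpr and the record does not say whether a fall means rescue or toxicity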
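Fission yeast RE007 carrying one integrated HIV-1 vpr copy, seeded at OD 0.01 in PMG+AL medium with 23 nL pinned compound. Grown 24 h at 30 degrees; viability read by BacTiter-Glo luminescence after 5 min.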
StopGo reporter: FMDV 2A StopGo reporter, luciferase signal | actives 1.2% (n = 410,000) | Potency, µM (highest dose often 57.9 µM), for the others: top-dose signal change, negative = less light | AID 1159524 | human cells with a luciferase reporter of 2A StopGo recoding; control for the full effect not named in the record; active = well fitted falling curve with a large enough effect; inconclusive = small, poorly fitted or top-dose-only effect; inactive = no such curve, though single readings can be large or run the other way; tested in HEK293T cells; further: on the % scale 0 is the no-effect control and ±100 the full control effect; nearly all actives have a fitted effect of over 45% in size; luciferase light after 4 h
NS1 inh: influenza NS1 inhibition | Potency, µM (highest dose often 46.1 µM), inactives show at the top dose activity, positive = more growth | actives 0.4% (n = 270,000) | S. cerevisiae slowed by influenza A NS1, growth recovery by OD600; active means well fitted rising curve with a large enough effect; inconclusive means small, poorly fitted or top-dose-only effect; inactive means no such curve, though single readings can be large or run the other way; further: nearly all actives have a fitted effect of over 50% in size
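OD600 was taken as the measure of yeast growth restored by compound in an NS1-expressing S. cerevisiae strain. Cells had been washed out of glucose medium and diluted 1:100 into galactose -URA medium, pH 6.0.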
Cruzain inh Det: blocks cruzain activity in presence of Triton detergent; P25779; actives 0.43% (n = 200,000); Potency, µM, for inactives: max response, negative = inhibition, hits mostly inhibitors; purified cruzain, Z-FR-AMC fluorescence, 0.01% Triton;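 further: plate controls were neutral wells for no effect and buffer without enzyme for full effect; nearly all actives have a fitted effect of over 40% in size; top concentration of the series not given in the record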
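15 min RT preincubation of 1.5 nM cruzain with compound, then 2 uM Z-FR-AMC added; kinetic AMC fluorescence, 60 s delta. Triton X-100 0.01%, pH 5.5.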
LASV entry inh: Lassa virus entry inhibition; Lassa virus pseudotype entry inhibition, cell reporter; control for the full effect not named in the record; Potency, µM (top dose mostly 37.9 µM), for the others: at the top dose activity change, negative = inhibition, usual class: inhibitors; actives 1.2% (n = 300,000); AID 540256; active means well fitted inhibition curve with a large enough effect; inconclusive means small, poorly fitted or top-dose-only effect, or effect the other way; inactive means flat fitted curve, though single readings scatter; tested in HEK293 cells; further: on the % scale 0 is the no-effect control and ±100 the full control effect; nearly all actives have a fitted effect of over 50% in size; luciferase read-out
SARS PLpro yeast: blocks SARS-CoV papain-like protease in a yeast assay; S. cerevisiae expressing SARS-CoV PLpro, growth rescue; control for the full effect not named in the record; Potency, µM (series often up to 32.9 µM), inactives show at the top dose activity, positive = growth rescue; actives 0.19% (n = 330,000); active means well fitted rising curve with a large enough effect; inconclusive means small, poorly fitted or top-dose-only effect; inactive means no such curve, though single readings can be large or run the other way; further: 0% is about no effect; nearly all actives have a fitted effect of over 55% in size; growth read by luminescence after 48 h
Active calls of the source: *; ? = inconclusive; . = not tested or not shown; & = joins results of further samples; [ ] = dose if it differs, or a comment. Unless noted, the call rests on the fitted dose curve; in most records, active means well fitted curve in the direction sought with a large enough effect; inconclusive means small, poorly fitted or top-dose-only effect, or another doubt; inactive means no such curve, though single readings can be large; an effect the other way counts as inactive or inconclusive. Potency means the concentration at half of the fitted maximal effect.

SMILES	Cruzain inh noDet	MARV entry inh	RE007 growth inh	StopGo reporter	NS1 inh	Cruzain inh Det	LASV entry inh	SARS PLpro yeast
O=c1oc2ccccc2cc1-c1cn2cccnc2n1	-6%	?	20%[3.69 µM]	14%	-57%	-15%	?	-12%
Cc1ccc(Nc2c(-c3c[nH]c4ccccc34)nc3cc(C)ccn23)cc1	?	13%[46.1 µM]	.	56%[activator]	.	-9.9%	?	.
O=C(N/N=C/c1ccc(N2CCOCC2)cc1)c1ccccc1NS(=O)(=O)c1cccs1	.	-3%[46.1 µM]	0%	32%[activator]	.	.	-7%	6%
O=C(N/N=C/c1ccc(Br)s1)c1ccc([N+](=O)[O-])cc1	.	?	2%	-2%	.	.	-23%	0%
COC(=O)c1sccc1OC(C)C(C)=O (stereo not given)	-1%	2%	-6%	-15%	-6%	13%	-3%	-1%
Cn1cccc1CNC1CCCCC1	11%	17%	-11%	.	2%	6.7%	-3%	4%
CCN(CC)CCCNC(=O)c1cc(-c2ccc(Cl)cc2)on1	2%	?	-11%	16%	3%	-1.6%	0%	-2%
CC(=O)Nc1ccc(-c2cn3cccnc3n2)cc1	?	14%	9%	69%[activator]	9%	?	-12%	5%
CCOC(=O)N1CCN(S(=O)(=O)c2cccc3nonc23)CC1	-7%	-20%	8%	-8%	4%	-5.9%	0%	0%
O=C(CSc1nc2ncc(Br)cc2[nH]1)c1ccc([N+](=O)[O-])cc1	-4%	10%	-12%	-12%	-7%	-9.8%	14%	-28%
NC(=O)Cn1nc(C(F)(F)F)c2c1CCCC2	.	5%[46.1 µM]	1%	-7%	3%	.	22%	1%
COc1ccc(CCn2nnnc2C(c2ccc(Cl)cc2)N2CCN(C)CC2)cc1OC (stereo not given)	-2%	-5%	-1%	8%	-5%	-5.4%	10%	2%
Cc1noc(C)c1CC(=O)N1CCCC(N2CCN(c3ccccc3F)CC2)C1 (stereo not given)	.	-13%	-5%	-17%	.	.	0%	.
CC(C)C(O)P(=O)(OCc1ccccc1)c1ccc(N(C)C)cc1 (stereo not given)	2%	-9%	4%	27%	-2%	-5.7%	-27%	-1%
CC(=O)NCCc1nc2cc(NC(=O)c3ccc([N+](=O)[O-])cc3)ccc2n1C	.	?	?	7%	-3%	.	-14%[46.1 µM]	0%
O=C(O)CN1C(c2ccccc2)=Nc2ccc(Br)cc2C1c1ccccc1 (stereo not given)	.	0%[46.1 µM]	9%	-4%	-3%	.	4%	0%
Cc1nc(-c2cccc(NC(=O)c3ccc(Br)o3)c2)cs1	.	.	-23%	26%	-55%	.	.	-9%
CCc1[nH]c(C)c(C(C)=O)c1C	-6%	1%[46.1 µM]	5%	24%	-7%	3.7%	28%	-3%
Cc1ccc2nc(SCC(=O)Nc3ccc(C#N)cc3)[nH]c2c1	0%	.	.	7%	.	-23%	-12%[46.1 µM]	.
Cc1ccc(CC(=O)NCCS(=O)c2ccc(Cl)cc2)cc1 (stereo not given)	2%	-2%[46.1 µM]	14%	-12%	-12%	0.6%	5%	16%
O=C(CN1C(=O)COc2ccccc21)NCCCN1CCCC1	.	.	-6%	-16%	2%	.	.	-7%
Cc1ccc(NC(=S)NCc2ccc(Cl)cc2)c(C)c1	.	?	9%	10%	?	.	?	0%
CCC(CC)Nc1ccc(C(CC(N)=O)NC(=O)Cc2cccc3ccccc23)cc1[N+](=O)[O-] (stereo not given)	.	.	10%	-7%	-8%	.	.	0%
OCc1nnn(-c2ccccc2)c1CO	.	.	11%	59%[activator]	2%	.	.	1%
Cc1cccc(OCC(=O)N2CCN(C(=O)Cc3ccccc3)CC2)c1	7%	?	9%	-22%	-19%	1.9%	13%	-1%
COc1cccc(CN(C(=O)/C=C/c2ccc(Cl)cc2)C2CCS(=O)(=O)C2)c1 (stereo not given)	.	0%[14.2 µM]	5%	-26%	.	.	-15%	1%
Cc1c(NC(=S)NC(=O)c2cc3ccccc3o2)cccc1C(=O)O	.	.	5%	35%[activator]	5%	.	.	-5%
CCCCn1c(N)c(N(CCOC)C(=O)c2ccc(S(=O)(=O)N3CCCCCC3)cc2)c(=O)[nH]c1=O	.	-5%	-19%	-6%	.	.	-1%	-1%
O=C1Nc2ccc(C(=O)O)c(O)c2C1=O	.	-4%[46.1 µM]	-17%	-14%	.	.	9%[46.1 µM]	.
COc1ccc2[nH]cc(CCN(C)C)c2c1	-9%	?	-18%	-23%&-10%	2%&8%	2.5%	.	-1%
COc1ccc(C(=O)C2CCCN(C(=O)Cn3ccc(C)n3)C2)cc1OC (stereo not given)	.	?	-2%	-10%	5%	.	4%[46.1 µM]	0%
CSCCCNC(=S)N1CCN(c2ccc(C(C)=O)cc2)CC1	.	7%[46.1 µM]	8%	-8%	-2%	.	-19%	-2%
COC(=O)C1=C(C)NC(C)=C(C(=O)OC)C1c1ccc(OC(=O)c2ccco2)cc1	?	4%	12%	1%	-16%	-8.0%	1%	-12%
O=C(NCc1ccco1)c1sc2ccccc2c1Cl	25µM*	21%	?	41%[activator]	-8%	?	17%	-31%
CC1CCCC(C)N1/N=C/c1c[nH]c2ccc(Br)cc12 (stereo not given)	-2%	?	3%	-9%	4%	-4.7%	-9%	5%
Cc1cc(CC(C)C)n(-c2nc3ccccc3c(=O)n2OCC(=O)N(C)C)n1	2%	6%[46.1 µM]	4%	23%	-53%	-0.2%	15%	-5%
Cc1ccc(S(=O)(=O)Nc2c(O)c3ccccc3oc2=O)cc1	.	?	-6%	34%[activator]	25%	.	6%	-1%
CC(C)(C)C(=O)Nc1cc(S(=O)(=O)N2CCCCC2)ccc1N1CCCCC1	.	-27%[46.1 µM]	-6%	-6%	.	.	?	1%
O=C1CC(=O)N(c2ccccc2)C(=O)N1c1ccccc1	.	15%[46.1 µM]	13%	2%	12%	.	20%[46.1 µM]	-2%
CS(=O)(=O)O/N=C1\CCCCC1c1ccc([N+](=O)[O-])cc1[N+](=O)[O-] (stereo not given)	.	20%[46.1 µM]	-13%	2%	-1%	.	3%[46.1 µM]	4%
CNC(=O)Cn1nc(-c2ccc(Cl)cc2)c2ccccc2c1=O	3%	22%&-2%[46.1 µM]	0%	-6%&-7%	3%	0.0%	22%&20%[46.1 µM]	1%
C=CCOc1ccc(/C=C2\SC(=S)N(CCC(=O)O)C2=O)cc1	.	.	-6%	1µM*	2%	.	.	2%
COc1ccccc1NC(=O)CCNS(=O)(=O)c1ccc2c(c1)CCN2C(C)=O	.	.	-4%	0%	4%	.	.	-4%
O=C(NCCSc1ccccn1)c1ccc(Cl)cc1	.	9%[46.1 µM]	5%	-28%	.	.	?	4%
COC(=O)NNC(=O)c1ccc(C(C)(C)C)cc1	-4%	6%	63%	36%[activator]	9%	-3.5%	?	-6%
Cn1c(N)c(C(=O)COC(=O)C2=NNC(=O)CC2)c(=O)n(C)c1=O	.	10%[46.1 µM]	5%	-15%	1%	.	2%	1%
Cc1nc2ncnn2c(C)c1CCC(=O)N1CCc2ccccc2C1	4%	11%	25%	-18%	3%	4.8%	-3%	-11%
Cc1nc(N2CCN(C)CC2)c2cc(-c3ccccc3)sc2n1	.	17%[46.1 µM]	3%	4%	.	.	3%[46.1 µM]	1%
O=C(CN(Cc1ccccc1)C(=O)CNS(=O)(=O)c1ccccc1)NCC1CCCO1 (stereo not given)	.	-1%[46.1 µM]	-9%	2%	3%	.	6%	1%
CCCc1cc(=O)[nH]c(SCC(=O)Nc2ccc(N3CCCCC3)cc2)n1	.	-8%[46.1 µM]	-11%	-17%	.	.	18%[46.1 µM]	-18%
Nc1nc2nc(-c3ccccc3)cc(=O)n2[nH]1	17%&0%	-2%[46.1 µM]	5%	-4%&-9%	-7%	-0.3%&2.7%	-4%[46.1 µM]	5%
COc1ccc2sc(NC(=O)NC(=O)c3c(Cl)cccc3Cl)nc2c1	.	-29%	-12%	25%	2%	.	?	0%
O=C(NCCc1ccccc1)c1cnn(-c2ccc(F)cc2)c1-n1cccc1	-26%	.	.	-23%	.	-6.8%	-2%[46.1 µM]	.
CC(C)Oc1ccc(CC(=O)NNC(=S)Nc2ccccc2)cc1	.	.	5%	26%	4%	.	.	3%
O=C(CN1C(=O)c2ccccc2C1=O)N(CCO)Cc1ccccc1	.	.	21%	-14%	-2%	.	.	0%
CNS(=O)(=O)c1cccc(C(=O)OCC(=O)N(Cc2ccccc2)C(C)(C)C)c1	.	-2%[46.1 µM]	-5%	17%	.	.	-8%	3%
C=CCn1c2ccccc2c2nnc(SCN3C(=O)c4ccccc4C3=O)nc21	?	5%[46.1 µM]	7%	-13%	-47%	0.3%	1%	-12%
Cc1oc(C)c2c(=O)ccc3c(c12)OC(N)=C(C#N)C3c1ccccc1Cl (stereo not given)	?	-13%	0%	0%	9%	-9.2%	?	1%
O=c1c2c3c(sc2nc2sc(CN4CCCCC4)cn12)CCCC3	-4%	.	.	.	6%	5.3%	.	8%
COc1ccc(CN2CCc3ccc(NC(=O)CCc4ccccc4OC)cc3C2)c(O)c1	.	?	-5%	?	6%	.	?	-1%
Other records.
SMILES	Cruzain inh noDet	MARV entry inh	RE007 growth inh	StopGo reporter	NS1 inh	Cruzain inh Det	LASV entry inh	SARS PLpro yeast
CN(C)CCCN1C(=O)C(=O)/C(=C(/O)c2ccncc2)C1c1cccnc1 (stereo not given)	2%	20%&7%	-6%	-8%	2%	-1.6%	-24%	1%
COc1ccccc1-n1c(SCC(N)=O)nnc1-c1ccc(S(=O)(=O)N2CCCCC2)cc1	?	1%&0%	16%	-1%	7%	2.0%	-9%	0%
CCn1cc(C(=O)NCCCN2CC(C)CC(C)C2)c(=O)c2cc(S(=O)(=O)N(C)C)ccc21 (stereo not given)	-4%	-1%	3%	-26%	-6%	-1.1%	.	9%
CC(=O)N1N=C(c2cccc(O)c2)CC1c1cccs1 (stereo not given)	.	.	-8%	-22%	13%	.	.	-1%
